Screening data from PubChem.
Calb biofilm kill = mixtures killing C. albicans biofilm. C. albicans biofilm persisters + clotrimazole, fluorescence viability; primary screen in compound mixtures of four per well. inhibition, % at 7.6 µM. 120,000 tested, 0.02% active. AID 1242;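 active = inhibition above 30.3% in the primary screen of four-compound pools, then above 30% when the compound was retested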;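 also: compounds exposed to preformed 24 h biofilms for 48 h; the number belongs to the whole pool; some results filed as inactive read as strong as hits; inactives centre near 12; 0% = biofilm with clotrimazole alone and 100% = kill control; retested singly at about 60 µM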
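Test system: C. albicans biofilms. Buffer or medium: RPMI/MOPS medium, pH 7.0. Timing: 48 h compound exposure at 37 °C. Technique: Alamar Blue fluorescence. Evaluation: percent inhibition of biofilm viability.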
Starred values were filed as active, the others as inactive. This is a subset; the hit share may differ from the screen's.

SMILES | Calb biofilm kill
COc1ccc(-n2c(CNc3ccc(C)cc3)nnc2SCc2ccccc2)cc1 | -14
O=c1[nH]nc(CNc2ccc(Cl)cc2Cl)c2ccccc12 | 13
CC(C)(C)c1csc(N/N=C/c2cccnc2)n1 | 10
c1ccc(-c2ccccc2OCCOCCN2CCc3ccccc3C2)cc1 | 8
O=C(Cc1c2ccccc2nc2ccccc12)c1ccccc1 | 14
Cc1c(-n2c(SC(C)C(=O)NC(N)=O)nc3ccccc3c2=O)c(=O)n(-c2ccccc2)n1C (stereo unspecified) | 4
COc1ccc(/C=C/C(=O)OCC(=O)Nc2cccc(C(C)=O)c2)cc1 | 21
Cn1nnnc1SCC(=O)Nc1nn(-c2ccccc2)nc1C(N)=O | 12
Cc1ccc(S(=O)(=O)Nc2cc(C(F)(F)F)ccc2N2CCOCC2)cc1 | 9
CCNc1nc2nc3ccc(C)cn3c(=O)c2cc1C(=O)NCC1CCCO1 (stereo unspecified) | 14

2 compounds drawn at random from those above:
SMILES | Calb biofilm kill
CCNc1nc2nc3ccc(C)cn3c(=O)c2cc1C(=O)NCC1CCCO1 (stereo unspecified) | 14
c1ccc(-c2ccccc2OCCOCCN2CCc3ccccc3C2)cc1 | 8

Remaining list, next part:
SMILES | Calb biofilm kill
CCN(CC)C(=O)Oc1ccc(OC(=O)N(CC)CC)cc1 | 11
CNCc1ccccc1OCc1ccccc1F | 2
CCN(CC)S(=O)(=O)c1ccc(NN)nc1 | 8
NC(=O)NC(CC(=O)NCCc1ccc(S(N)(=O)=O)cc1)c1ccc(Cl)cc1 (stereo unspecified) | 12
CC(c1ccccc1)C1OCC(C[N+]2(C)CCCCC2)O1 (stereo unspecified) | 16
O=[N+]([O-])c1ccc(NCCNS(=O)(=O)c2ccccc2)cc1 | 23
O=C(Nc1nc(-c2ccc(-c3ccccc3)cc2)cs1)c1cnccn1 | 9
C/C(Cn1nnc2ccccc21)=N/OC(=O)c1c(F)cccc1F | 11
COC1=C(Nc2ccccc2)C(=O)c2ccccc2C1=O | 0
O=C(NCc1ccccc1)c1n[nH]nc1-c1ccccc1O | 11

Compounds above that have an aryl methoxy group:
SMILES | Calb biofilm kill
COc1ccc(-n2c(CNc3ccc(C)cc3)nnc2SCc2ccccc2)cc1 | -14
COc1ccc(/C=C/C(=O)OCC(=O)Nc2cccc(C(C)=O)c2)cc1 | 21

Going on with the list.
SMILES | Calb biofilm kill
C=CCN1C(=O)C(CC(=O)Nc2ccccc2F)S/C1=N\c1nccs1 (stereo unspecified) | 18
O=[N+]([O-])c1ccccc1-c1cc(-c2ccccc2O)n[nH]1 | 11
COc1ccc([N+](=O)[O-])cc1NC(=O)COC(=O)c1ccccn1 | 13
Cc1onc(-c2c(F)cccc2Cl)c1C(=O)c1ccccc1O | 12
Cc1cccc(OCc2nnc(SCC(=O)N3c4ccccc4Sc4ccc(Cl)cc43)o2)c1 | -16
CCn1c(SCC(=O)N/N=C/c2cc(OC)c(OC)c(OC)c2)nc2ccccc21 | 27
CCNc1nc(NCC)n2c(SCC(=O)c3ccc(C(C)C)cc3)nnc2n1 | 15
Cc1c(C(C)C)c(=O)n(-c2ccc(S(=O)(=O)NCc3ccccc3)cc2)n1C | 14
C=CCn1c(-c2ccncc2)n[nH]c1=S | 26
O=C(NCC1CCCO1)c1ccc2c(=O)n(CC3CCCO3)c(SCC(=O)N3CCCC3)nc2c1 (stereo unspecified) | 3
CC1Cc2cc(/C=C3/SC(=S)N(C)C3=O)ccc2O1 (stereo unspecified) | 17
NC(=O)CC(NC(=O)c1ccc(Br)cc1)c1ccc(N2CCN(c3ccccn3)CC2)c([N+](=O)[O-])c1 (stereo unspecified) | 17
Nc1nnn(CC(=O)N/N=C/c2ccco2)n1 | 12
CCc1nn(C)c(N)c1C | 18
COc1ccc(CNCC(O)COc2cccc3c2OC(C)(C)C3)cc1 (stereo unspecified) | 7
Cc1onc(-c2c(Cl)cccc2Cl)c1C(=O)N=S(C)(=O)c1ccccc1 (stereo unspecified) | 13
CCOc1ccc(/C=C(\C#N)C(=O)c2c(C)[nH]c3ccccc23)cc1OC | 16
COc1ccc(-c2[nH]ncc2-c2csc(C)n2)c(O)c1 | -2
CN(C)/C=C(\C#N)S(=O)(=O)c1ccccc1 | 11
O=C(NNC(=S)NC(=O)c1cccs1)c1ccc(NC(=O)c2ccccc2)cc1 | 9

Overlap with the part before: seven entries, then new ones.
SMILES | Calb biofilm kill
CCc1nn(C)c(N)c1C | 18
COc1ccc(CNCC(O)COc2cccc3c2OC(C)(C)C3)cc1 (stereo unspecified) | 7
Cc1onc(-c2c(Cl)cccc2Cl)c1C(=O)N=S(C)(=O)c1ccccc1 (stereo unspecified) | 13
CCOc1ccc(/C=C(\C#N)C(=O)c2c(C)[nH]c3ccccc23)cc1OC | 16
COc1ccc(-c2[nH]ncc2-c2csc(C)n2)c(O)c1 | -2
CN(C)/C=C(\C#N)S(=O)(=O)c1ccccc1 | 11
O=C(NNC(=S)NC(=O)c1cccs1)c1ccc(NC(=O)c2ccccc2)cc1 | 9
O=C(c1ccccc1)c1ccccc1C(=O)N1CCN(C(=O)c2ccccc2)CC1 | 7
COc1ccc(S(=O)(=O)Nc2c(C(=O)O)[nH]c3ccccc23)cc1OC | 11
COc1cc(NC(=O)Cc2nn(C)c(=O)c3ccccc23)cc(OC)c1OC | 13
CCOc1ccc2nc(NCCNC(=S)NCCCN(C)C)c(C#N)cc2c1 | -7
CCO[C@@H]1OC(C(=O)N2CCN(Cc3ccc4c(c3)OCO4)CC2)=C[C@H](C2CC2)[C@H]1CCCO | 17
O=C(NCc1ccccn1)C1CCCCC1 | -4
COC(=O)CCc1nc2ccccc2nc1OC | 2
CCn1c(Cl)c(C=O)s/c1=N\S(=O)(=O)c1ccccc1 | -2
CC(=O)Nc1ccc2nc(NS(=O)(=O)c3ccc(C)cc3)sc2c1 | 7
O=C(CN1CCNCC1)NCCSc1ccc(Cl)cc1 | 7
COc1ccccc1NS(=O)(=O)c1ccc(NN=C2CCCC2)c([N+](=O)[O-])c1 | -8
O=C(N/N=C/C(Br)=C/c1ccccc1)c1cc(-c2ccco2)[nH]n1 | 10
CC(C)OC(=O)c1nnc(Cc2ccc(Cl)cc2)o1 | 2
CCn1cc(C(=O)N2CCN(c3ccccn3)CC2)c(=O)c2cc(S(=O)(=O)N(C)C3CCCCC3)ccc21 | 37
COc1cc(C2OCC3C(c4ccc(OC5OC(CO)C(O)C(O)C5O)c(OC)c4)OCC23)ccc1O (stereo unspecified) | 14
CC(C)(C)CC(C)(C)NCC(O)COCCOc1ccc(Br)cc1 (stereo unspecified) | 16
O=C(CSc1ccc(Cl)cc1)NCc1ccco1 | 25
Cc1ccc(C(=O)N2CCN(c3cnn(C)c(=O)c3Cl)CC2)cc1 | 8
C=CCn1c(C)cc(-c2csc(NC)n2)c1C | 15
COc1ccc(N(C(C)=O)S(=O)(=O)c2cccs2)cc1 | 13
Cc1cccc(C)c1NC(=O)N1CCCC1C(=O)Nc1ccc(-n2cnnn2)cc1 (stereo unspecified) | -2
Cc1ccc(NC(=O)CC2S/C(=N/N=C/c3c[nH]c4ccccc34)NC2=O)cc1 (stereo unspecified) | 8
COc1cccc(NC(=O)Cn2c(=O)n(CCC(=O)NCc3ccco3)c(=O)c3ccccc32)c1 | 24
Cc1ccc(/C=N/Nc2nnc(Cc3ccccc3)c(=O)[nH]2)o1 | 14
O=S(=O)(NC1CCCCCC1)c1ccc(Br)s1 | 16
COc1ccc(CNC(=O)C(c2ccco2)N(C(=O)c2ccccn2)c2ccccc2)cc1 (stereo unspecified) | 1
COc1ccc(NC(=O)N(CCCN(C)C)Cc2cc3cc(OC)ccc3[nH]c2=O)cc1 | 9
O=C(Nc1nc(-c2cccc3ccccc23)cs1)c1ccc2c(c1)S(=O)(=O)c1ccccc1C2=O | 17
CCOC(=O)c1cc(-c2csc(COc3ccc(Cl)cc3)n2)on1 | 20
c1csc(-c2nc3ccccc3s2)c1 | 24
COCCNC(=O)CCc1nnc(C2(c3ccc(Cl)cc3)CCC2)o1 | 15
O=C(NC1CCCCCC1)C(=S)N1CCCC1 | 15
O=c1c(/C=N/N2CCOCC2)c(C(F)(F)F)[nH]n1-c1ccccc1 | 14
COc1cc2oc3cc(C)oc(=O)c3c2cc1OC | 19
O=C(NC1CCS(=O)(=O)C1)c1sc2ccccc2c1Cl (stereo unspecified) | 3
CN(C)C(=S)NC(=O)c1cccc(Cl)c1 | 14
COc1ccc(C(=O)N/C(=C/c2cccs2)C(=O)NN)cc1OC | 3
Cc1cc(C)c2c(c1)N[C@H](c1cccs1)[C@@H]1CCO[C@H]21 | 13
COc1cccc2c1c(NC(=O)Nc1ccc(F)cc1F)nn2C | 23
Oc1c(Cl)cc(Cl)cc1C1Nc2ccccc2-n2cccc21 (stereo unspecified) | 23
S=c1nc(-c2ccccc2)n(Cc2cccnc2)c2c1CCCC2 | 9
COc1ccc(/C=N/NC(=O)c2nc(-c3ccccc3)n(-c3ccccc3)n2)c(O)c1 | 8
CCOC(=O)NC(=S)Nc1ccc(C(C)(C)C)cc1 | 19
COc1ccc2[nH]c(=O)c(CN(Cc3cccnc3)Cc3nnnn3CC3CCCO3)cc2c1 (stereo unspecified) | 16
NNC(=O)c1ccc(COCC(F)(F)C(F)F)cc1 | 22
CN1C(=O)c2ccccc2N(C)C1c1ccccc1Cl (stereo unspecified) | 20
CC1S/C(=N/N=C/c2cccs2)NC1=O (stereo unspecified) | 18
CCN(C(=O)CSc1nnc(NCc2ccccc2)s1)C1CCS(=O)(=O)C1 (stereo unspecified) | 14
CCOc1ncccc1C(=O)OCC(=O)Nc1cc(S(=O)(=O)N2CCOCC2)ccc1Cl | 14
CCCC(=O)Nc1sc2c(c1C#N)CC(C)(C)NC2(C)C | 6

Reprinted from the part before: 5 compounds, then new ones.
SMILES | Calb biofilm kill
CN1C(=O)c2ccccc2N(C)C1c1ccccc1Cl (stereo unspecified) | 20
CC1S/C(=N/N=C/c2cccs2)NC1=O (stereo unspecified) | 18
CCN(C(=O)CSc1nnc(NCc2ccccc2)s1)C1CCS(=O)(=O)C1 (stereo unspecified) | 14
CCOc1ncccc1C(=O)OCC(=O)Nc1cc(S(=O)(=O)N2CCOCC2)ccc1Cl | 14
CCCC(=O)Nc1sc2c(c1C#N)CC(C)(C)NC2(C)C | 6
CC(Sc1cccc[n+]1[O-])C(=O)Nc1cccc([N+](=O)[O-])c1 (stereo unspecified) | -3
N#Cc1cccc(NC(=O)CSc2n[nH]c(=O)[nH]c2=O)c1 | 10
COc1cc(CCN2C(=O)c3cccc4cccc(c34)C2=O)c(S(=O)(=O)N2CCCCCC2)cc1OC | 23
CCN(CC)S(=O)(=O)c1cccc(C(=O)N/N=C/c2c(C)nn(-c3ccccc3)c2Cl)c1 | 8
COc1ccccc1C1OC2=C(Nc3ccc([N+](=O)[O-])cc3N2)C1=O (stereo unspecified) | 15
O=C(OCC(=O)N1CCCc2ccccc21)c1cccc(S(=O)(=O)N2CCc3ccccc32)c1 | 18
Clc1ccc(C2=Nn3c(nnc3-c3cccs3)SC2)cc1 | 10
COc1ccc(CN(CC2CCCO2)C(=O)c2cc3sccc3n2C)c(OC)c1 (stereo unspecified) | 10
Cc1cccc(OCCN2C(=O)C(=O)c3cc(C)ccc32)c1 | 12
COc1ccc([C@H]2C=C3CN(C(=O)OC(C)(C)C)S(=O)(=O)[C@H]3C[C@H]2OC(=O)c2cccs2)cc1 | 31
O=C(/C=C/c1ccc(O)cc1)c1ccc(O)cc1O | 16
CNC(=O)c1cc(C(=O)c2c(Cl)cccc2Cl)c[nH]1 | -22
CN1CCN(C(=S)Nc2ccc(Oc3ccccc3)cc2)CC1 | 10
CCOC(=O)c1ccc(NC(=O)CSc2nc3cccnc3n2C)cc1 | 10
CC(C)CC(=O)Nc1nnc(SCC(=O)Nc2ccc(F)cc2)s1 | 24
CCOC(=O)c1c(NC(=O)CN(C)C2CCN(C)CC2)sc(C(=O)Nc2ccccc2)c1C | 11
NCCNc1ccc([N+](=O)[O-])c(NC2CC2)c1 | 13
COc1ccccc1-c1nc(SC)n[nH]1 | 18
O=C(O)c1ccc(NC2=C(N3CCOCC3)C(=O)c3ccccc3C2=O)cc1 | 17
COc1ccc(/C=N/NC(=S)Nc2ccccc2)cc1COc1ccc(F)cc1 | 4
COc1ccc(S(=O)(=O)N2CCCCCC2)cc1C(=O)OCC(=O)Nc1cc(C)on1 | 8
Cn1nnc2c[n+](CC(=O)c3ccc4ccccc4c3)cc(Br)c21 | 26
CN1C/C(=C\c2ccc(N3CCOCC3)cc2)C(=O)/C(=C/c2ccc(N3CCOCC3)cc2)C1 | 11
CNC(=S)N/N=C/c1ccccc1Cl | 21
O=C(COc1ccccc1)NCC(=O)N/N=C/c1cc(Br)ccc1OCc1ccccc1 | 12
Cc1occc1C(=O)O/N=C(\N)c1ccc(Cl)cc1 | 13
Cc1cc(C)cc(C(=O)N2CC(C)SC2=Nc2cccc(S(=O)(=O)N(C)C)c2)c1 (stereo unspecified) | 18
CC(C)CNc1nc(S(=O)(=O)c2ccccc2)c(Cl)s1 | 18
CCn1c(SCc2nc3ccccc3c(=O)[nH]2)nnc1C(C)NC(=O)c1ccccc1F (stereo unspecified) | 0
O=S(=O)(Nc1ccc(N2CCCCC2)cc1)c1ccc(F)cc1 | 18
Cc1ccc(NC(=O)[C@@H]2CCCN2S(=O)(=O)c2ccccc2F)cc1 | 3
COc1ccc(NC(=O)Cc2ccccc2F)cn1 | 11
COc1cc(C=NCC2OCCc3ccccc32)cc(OC)c1 (stereo unspecified) | 20
O=C1S/C(=C\C=C\c2ccco2)C(=O)N1c1ccc(O)cc1 | 1
